ClpP mod: qHTS Assay for Activators of ClpP; ATP-dependent Clp protease proteolytic subunit (Bacillus subtilis (strain 168)), P80244; Potency, µM (series often up to 57.5 µM), for the others: at the highest dose activity change, negative = active; hit rate 1.9% among 340,000; purified B. subtilis ClpP, FRET peptide cleavage, 20 min; active = well fitted falling curve with a large enough effect; inconclusive = small, poorly fitted or top-dose-only effect; inactive = no such curve, though single readings can be large or run the other way; further: potency means the concentration at half of the fitted maximal effect; the source files actives as falling curves though it sought activators and does not explain the sign; nearly all actives have a fitted effect of over 65% in size; many hits overshoot -100%
Target sequence (P80244 whole entry, looked up): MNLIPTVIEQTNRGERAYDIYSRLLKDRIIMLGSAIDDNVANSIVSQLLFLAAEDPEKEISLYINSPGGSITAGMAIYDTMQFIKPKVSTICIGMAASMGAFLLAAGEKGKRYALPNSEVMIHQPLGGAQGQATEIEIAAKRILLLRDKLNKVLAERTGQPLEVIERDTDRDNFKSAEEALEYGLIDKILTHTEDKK
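FRET quenching reversal measured ClpP activation: 10 microg/mL B. subtilis ClpP at pH 8 with the FRET-FV decapeptide, read at 430 nm after 320 nm excitation. The 20-min minus 0-min signal was scaled between DMSO/no-enzyme wells and ADEP (5.8 microM final).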
D2 PAM: human D2 receptor positive allosteric modulation. potentiation, % (no concentration beside the values). DiscoveRx D2 beta-arrestin cells, luminescence, 90 min; 100% = 57 uM dopamine signal. hit rate 0.23% among 360,000. P14416; active = potentiation of 50% or more; inconclusive = 30% to 50%; inactive = 30% or less;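 further: compound concentration not given in the record; tested on top of an EC20 dose of dopamine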
Target sequence (P14416 whole entry, looked up): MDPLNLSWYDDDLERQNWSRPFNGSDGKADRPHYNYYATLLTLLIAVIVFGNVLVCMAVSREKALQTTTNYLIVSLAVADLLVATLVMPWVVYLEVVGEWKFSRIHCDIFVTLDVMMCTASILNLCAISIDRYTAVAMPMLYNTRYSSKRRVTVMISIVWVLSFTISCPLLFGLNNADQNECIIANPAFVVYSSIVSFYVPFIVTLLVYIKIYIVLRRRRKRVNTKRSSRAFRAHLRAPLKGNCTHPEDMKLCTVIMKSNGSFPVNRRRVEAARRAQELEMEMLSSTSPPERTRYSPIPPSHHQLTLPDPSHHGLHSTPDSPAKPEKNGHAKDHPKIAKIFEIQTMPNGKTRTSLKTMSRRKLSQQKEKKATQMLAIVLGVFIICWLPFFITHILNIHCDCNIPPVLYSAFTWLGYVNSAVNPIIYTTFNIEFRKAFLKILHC
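D2 cells co-treated with compound plus 50 nM dopamine (EC20) for 90 min at 37 deg C to detect potentiation. Beta-arrestin recruitment was read as enzyme-fragment luminescence after 1 h at ambient temperature. Full response was set by 57 uM dopamine.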
Active calls of the source: *; u = inconclusive.

entry | Molecule | ClpP mod | D2 PAM
1 | Fc1ccc(-c2nc3c4ccccc4ccn3c2Cc2ccsc2)cc1 | -18.8% | -9.2
2 | O=c1cc(-c2ccccc2)oc2c1CCCC2 | -0.3% | -1.0
3 | CC(C)CC(N)c1csc(NC(=O)Nc2ccccc2C(C)(C)C)n1 (centres undefined) | -2.5% | -8.8
4 | COc1ccccc1-c1ccc2c(c1)C(C)(Cc1ccc(OC(F)(F)F)cc1)C(=O)N2 (centres undefined) | u | -10.3
5 | Brc1ccc2nc(-c3ccccc3)c(Cc3ccsc3)n2c1 | -8.5% | -0.6
6 | Cc1ccc(F)c(S(=O)(=O)NC(=O)C2(C)CCN2C(=O)Cc2cccc3ccccc23)c1 (centres undefined) | 2.5% | -5.1
7 | CSc1ccc(C(O)c2ncc(-c3ccccc3Cl)[nH]2)cc1 (centres undefined) | -2.2% | -9.5
8 | CC1=C(C(=O)N(C(C)C)C(C)C)CC(CC(=O)NCCc2ccccn2)C(=O)N1CCC1=CCCCC1 (centres undefined) | -1.5% | -0.1
9 | CNc1nc(Nc2ccc(C)cc2C)c2sccc2n1 | -0.4% | -1.5
10 | CC(=O)Nc1cnc(-c2ccc(O)cc2C)cn1 | -2.3% | 3.3
11 | O=C(c1[nH]c(C(F)(F)F)nc1-c1ccccc1)N1CCN(CCN2CCOCC2)CC1 | -2.7% | -2.6
12 | CCCC(=O)N1CCCC1(C)C(=O)Nc1ccc2cn[nH]c2c1 (centres undefined) | -3.0% | -7.9
13 | Cc1ccc(S(=O)(=O)N2C[C@H]3C(=O)C[C@@H](c4ccccc4)N(S(C)(=O)=O)[C@H]3C[C@H]2c2ccccc2)cc1 | -0.5% | -2.4
14 | CC1(C(=O)NS(=O)(=O)c2cccc(C#N)c2)CCN1C(=O)C1(c2ccccc2)CC1 (centres undefined) | 2.9% | 2.9
15 | c1ccc(CNc2nc(NCCOc3ccccc3)c3sccc3n2)cc1 | -10.6% | -6.1
16 | CC(=O)Nc1cc(-c2ccc(C(=O)NC3CC3)cc2)cn2c(-c3ccc(F)c(Cl)c3)cnc12 | -23.4% | -3.6
17 | CNc1ccc(-c2ccccc2OC)cn1 | 4.7% | -10.0
18 | Cc1cc(C)cc(Cn2c3ccc(NC(=S)NCc4ccccc4F)cc3c(=O)n2C)c1 | 5.0% | 3.2
19 | COc1ccc(C(=O)N2CCC(C)(C(=O)NS(=O)(=O)C3CC3)C2)cc1F (centres undefined) | 0.7% | -7.4
20 | Cc1ccc(CN2CCCC2(C)C(=O)NC(C)C)cc1 (centres undefined) | -1.2% | -17.0
21 | COCc1cccc(-c2csc(C(NC(C)=O)c3cccc(F)c3)n2)c1 (centres undefined) | -0.1% | -2.9
22 | CC1(Oc2cccc(F)c2)CCN(Cc2ccc(-c3ccccn3)cc2)C1 (centres undefined) | -1.0% | -21.1
23 | O=C1C(=Cc2cn(-c3ccccc3)nc2-c2ccc(OCc3ccccc3)cc2)SC(=S)N1CCS(=O)(=O)O | -4.4% | -0.5
24 | CCCCNC(=O)C1(C)CCCCN1C(=O)c1c(F)ccc(C)c1F (centres undefined) | -1.7% | -7.2
25 | COc1cc2oc(=O)cc(CN3CCN(c4ccc(Cl)c(Cl)c4)CC3)c2cc1Cl | -9.2% | -6.7
26 | CC1(Cc2ccc(F)cc2)C(=O)Nc2ccc(S(=O)(=O)NC3CCCCC3)cc21 (centres undefined) | -3.2% | -2.2
27 | CCCCC(c1nc2ccccc2[nH]1)n1c(-c2ccccc2)nc2cc(C)c(C)cc21 (centres undefined) | -12.4% | -1.4
28 | Cc1nc(C(F)(F)F)ccc1C(=O)N1CCC1(C)C(=O)NCc1ccc(Cl)cc1 (centres undefined) | 1.9% | -7.1
29 | CC1(C(=O)NCC2CC2)Cc2c(-c3cccc(C(F)(F)F)c3)ccnc2O1 (centres undefined) | -3.5% | -0.4
30 | CSc1ccc(OC2(C)CCN(Cc3ccc(OC(F)(F)F)cc3)C2)cc1 (centres undefined) | 0.7% | -10.1

Some of the entries above in another layout:
Every second line gives: ClpP mod | D2 PAM
(26) CC1(Cc2ccc(F)cc2)C(=O)Nc2ccc(S(=O)(=O)NC3CCCCC3)cc21 (centres undefined)
→ -3.2% | -2.2
(27) CCCCC(c1nc2ccccc2[nH]1)n1c(-c2ccccc2)nc2cc(C)c(C)cc21 (centres undefined)
→ -12.4% | -1.4
(28) Cc1nc(C(F)(F)F)ccc1C(=O)N1CCC1(C)C(=O)NCc1ccc(Cl)cc1 (centres undefined)
→ 1.9% | -7.1

(next part)
entry | Molecule | ClpP mod | D2 PAM
31 | CCCNC(=O)c1cc(C2CCCCN2S(C)(=O)=O)on1 (centres undefined) | 0.6% | -9.8
32 | COc1cc(OC)nc(C(NC(=O)C2CCN(Cc3ccc(Oc4ccccc4)cc3)CC2)c2ccc(F)cc2)n1 (centres undefined) | 0.4% | -35.5
33 | COc1ccc(NC(=O)C2(C)CCN2CCOc2ccccc2)cc1OC (centres undefined) | 0.1% | 0.9
34 | O=S1(=O)CC(N2CCCCC2)CN1Cc1ccccc1 (centres undefined) | 3.0% | -2.3
35 | O=C(Nc1ccc2c(c1)OCO2)c1csc([C@H]2C[C@H](O)[C@@H](CO)O2)n1 | -0.6% | -3.6
36 | Nc1ncnc2c1ncn2[C@@H]1O[C@H](CCC(=O)NCc2ccccc2)[C@@H](O)[C@H]1O | -2.1% | -1.6
37 | COc1ccc(OC)c(S(=O)(=O)NC(=O)C2(C)CCN2C(=O)c2ccco2)c1 (centres undefined) | 2.1% | -2.2
38 | CC(C)(C)n1nnnc1C(c1ccnc2ccccc12)N1CCN(C/C=C/c2ccccc2)CC1 (centres undefined) | -2.0% | -13.9
39 | NC(=O)c1ccc(NCCc2cccs2)cc1 | -22.2% | -3.2
40 | COc1cc(CN2CCC(C(=O)NC(c3ccc(-c4ccccc4)cc3)c3cnccn3)CC2)cc(OC)c1 (centres undefined) | -1.9% | -15.1
41 | COc1cc2c3c(c1OC)C(=O)CC3CCCC2 (centres undefined) | -27.8% | -0.8
42 | CCOC(=O)C1(C)CCN1C(=O)c1ccc(Cl)cc1Cl (centres undefined) | -0.4% | 6.4
43 | CCOC(=O)C1(C)CCCN1C(=O)c1ccc(F)c(Cl)c1 (centres undefined) | -0.3% | -1.1
44 | CC1(C(=O)NCc2ccc(Cl)cc2)CCN1C(=O)Cc1cccs1 (centres undefined) | -5.9% | -3.2
45 | COc1ccc(NC(=O)c2cc(C3CCCCN3C(=O)OCc3ccccc3)on2)c(C)c1 (centres undefined) | -0.5% | -6.5
46 | O=C(NC(c1ccc(Cl)cc1)c1cnccn1)C1CCN(Cc2ccc(Cl)cc2)CC1 (centres undefined) | 0.9% | -23.1
47 | COc1ccc(CC(N)c2csc(NC(=O)c3ccc(F)cc3)n2)cc1 (centres undefined) | -7.8% | 16.4
48 | CC1(C(=O)Nc2cccc(C(F)(F)F)c2)Cc2c(-c3ccccc3)ccnc2O1 (centres undefined) | -7.5% | -7.1
49 | Cc1cc(Br)cn2c(Cc3ccsc3)c(-c3ccc(F)cc3)nc12 | 0.5% | -7.7
50 | O=C(Nc1ccc(C(O)c2ccccc2)cc1)[C@H]1C[C@H](O)[C@@H](CO)O1 (some centres undefined) | 1.7% | -5.9
51 | CC1(Cc2ccccc2Cl)C(=O)Nc2ccc(OC(F)(F)F)cc21 (centres undefined) | -3.0% | -13.8
52 | CC1(C(=O)Nc2cnc3ccccc3c2)CCN1CCc1ccccc1 (centres undefined) | -8.1% | -6.1
53 | OC[C@@H]1CN(Cc2ccccc2)C[C@H](n2cnc3c(NCc4ccco4)ncnc32)O1 | -3.0% | -19.0
54 | CC(C)(C)c1ccc(CC(=O)N2CCC2(C)C(=O)NS(=O)(=O)c2ccc(F)cc2F)cc1 (centres undefined) | 0.2% | 7.3
55 | C=Cc1ccc(Cn2c(C)c(C(=O)NCc3ccc(C#N)cc3)sc2=O)cc1 | 1.9% | 1.4
56 | CCOC(=O)c1csc(-c2ccc(COC(=O)c3ccccc3)o2)n1 | -3.4% | 2.9
57 | O=C(NCc1ccc(Cl)c(Cl)c1)c1cc(C2CCCCN2C(=O)c2ccccn2)on1 (centres undefined) | -0.9% | -3.7
58 | CCCCNC(=O)c1[nH]c(=O)cnc1-c1ccccc1 | 0.0% | 6.3
59 | Cc1ccccc1-c1cnc(C(O)c2ccc(Cl)cc2C)[nH]1 (centres undefined) | -0.1% | -9.3
60 | CC(C)C(=O)N1CCC1(C)C(=O)NS(=O)(=O)c1cccs1 (centres undefined) | -0.3% | -3.4

Rewritten as labelled records: entries from further up.
(50) O=C(Nc1ccc(C(O)c2ccccc2)cc1)[C@H]1C[C@H](O)[C@@H](CO)O1 (some centres undefined)
- ClpP mod = 1.7%
- D2 PAM = -5.9
(58) CCCCNC(=O)c1[nH]c(=O)cnc1-c1ccccc1
- ClpP mod = 0.0%
- D2 PAM = 6.3

Fetched by compound from above (three):
entry | Molecule | ClpP mod | D2 PAM
33 | COc1ccc(NC(=O)C2(C)CCN2CCOc2ccccc2)cc1OC (centres undefined) | 0.1% | 0.9
43 | CCOC(=O)C1(C)CCCN1C(=O)c1ccc(F)c(Cl)c1 (centres undefined) | -0.3% | -1.1
40 | COc1cc(CN2CCC(C(=O)NC(c3ccc(-c4ccccc4)cc3)c3cnccn3)CC2)cc(OC)c1 (centres undefined) | -1.9% | -15.1

(listing goes on)
entry | Molecule | ClpP mod | D2 PAM
61 | CC1=C(C(=O)N(C(C)C)C(C)C)CC(CC(=O)NC(c2ccccc2)c2ccccc2)C(=O)N1CCC1=CCCCC1 (centres undefined) | 2.0% | -8.2
62 | Cc1cc2c(=O)cc(-c3ccccc3)oc2c(C(=O)O)c1C | 5.2% | -3.3
63 | COc1ccc(-c2ccc(C(=O)NCc3ccc(C(F)(F)F)cc3)c3occc23)c(C)c1 | 4.4% | -4.4
64 | CC(C)c1ccc(CC(=O)N2CCC2(C)C(=O)NCc2cccc3ccccc23)cc1 (centres undefined) | -1.2% | -7.8
65 | NC(COCc1ccccc1)c1csc(Nc2ccccn2)n1 (centres undefined) | -4.2% | -2.4
66 | O=C(NCc1ccccc1)c1cc(C2CCCCN2S(=O)(=O)c2cccs2)on1 (centres undefined) | 0.4% | -2.0
67 | CCNC(=O)C1(C)CCCN(Cc2noc(-c3ccccc3OC)n2)C1 (centres undefined) | -21.7% | 3.5
68 | COc1ccccc1CN1C(=O)C(C)ON=C1c1ccccc1F (centres undefined) | 1.5% | 2.7
69 | CC(=O)NC(c1ccc(F)c(F)c1)c1nc(-c2cccc(C(F)(F)F)c2)cs1 (centres undefined) | -0.4% | -1.4
70 | COc1cc(C(O)c2nc(-c3cccc(NC(C)=O)c3)cs2)ccc1F (centres undefined) | 1.5% | -2.7
71 | CC(=O)Nc1cncc(-c2ccccc2F)n1 | u | -10.9
72 | O=C(CCN1C(=O)CC1c1ccco1)N1CCOCC1 (centres undefined) | -3.3% | -3.5
73 | CC1(C(=O)Nc2ccc3c(c2)OCCO3)CCN1C(=O)c1ccccc1CCc1ccccc1 (centres undefined) | -1.6% | -6.2
74 | COc1ccc(C(C)(NC(C)=O)c2nc(-c3cccc(NC(C)=O)c3)cs2)cc1 (centres undefined) | 0.4% | 3.4
75 | COc1ccc(OC)c(C(O)c2ncc(-c3ccccc3Cl)[nH]2)c1 (centres undefined) | -0.9% | -14.1
76 | CC1(C(=O)Nc2ccc(Cl)c(Cl)c2)CCN1C(=O)CC1CCCC1 (centres undefined) | 1.9% | -13.0
77 | CCOc1cc(C=NNC(=O)N(c2ccccc2)c2ccccc2)ccc1O | -28.1% | -1.0
78 | COc1cccc(-c2cnc(C(O)c3c(C)cccc3C)[nH]2)c1 (centres undefined) | -1.0% | -6.0
79 | O=C(Nc1cccc(C(F)(F)F)c1)c1cccc2c(-c3cccnc3)coc12 | -4.2% | -12.5
80 | CCOC(=O)C1=CCN(S(=O)(=O)c2ccccc2F)C1c1ccccc1 (centres undefined) | 0.9% | -0.4
81 | O=C(Nc1ccc(OCCO)cc1)c1csc([C@@H]2O[C@H](CO)[C@H](O)[C@H](O)[C@H]2O)n1 | 0.6% | -6.5
82 | O=C(NCc1ccc(F)cc1)c1cc(C2CCCCN2C(=O)c2ccccn2)on1 (centres undefined) | -2.0% | 0.9
83 | CC(=O)c1cccc(NC(=O)C2Cc3c(-c4cccc(F)c4)ccnc3O2)c1 (centres undefined) | -7.3% | -12.9
84 | Clc1ccc(-c2nc3ccc(Cl)cn3c2Cc2ccsc2)cc1 | -7.3% | -1.2
85 | CC[C@H](C)[C@@H]1NC(=O)[C@@H](CC(C)C)NC(=O)[C@H](C(C)C)NC(=O)[C@H]2CSSC[C@H](NC1=O)C(=O)N2 | 1.9% | 20.8
86 | CN1C(=O)CC2(C)C1=CCc1scnc12 (centres undefined) | -0.3% | -6.9
87 | Cc1cc(F)cc(-c2cc(C(=O)NCc3ccccn3)[nH]n2)c1 | 1.2% | -7.8
88 | CC(C)C(NC(=O)OCc1ccccc1)C(=O)NC(Cc1c[nH]c2ccccc12)C(=O)O (centres undefined) | -5.9% | -2.2
89 | CCCCN(C)c1c(C)nc2ccc(C(=O)NCCc3c[nH]c4ccccc34)cn12 | 0.6% | 2.0
90 | O=C(Nc1ccc(Oc2ccccc2)cc1)c1ccc2nc([C@@H]3O[C@H](CO)[C@H](O)[C@H](O)[C@H]3O)[nH]c2c1 | -1.4% | -4.0
91 | COc1ccc(S(=O)(=O)NC(=O)C2(C)CCN2C(=O)Cc2cc(C)cc(C)c2)cc1OC (centres undefined) | 0.3% | 5.5
92 | CCOC(=O)C1=CCN(S(=O)(=O)c2ccc(C)cc2)C1c1ccc(CC)cc1 (centres undefined) | -5.9% | -6.6

From PubChem

These rows are one share of the data (hit frequency here may not be typical).
